Assay outcomes (PubChem BioAssay)
VACV mCherry inh: inhibitors of vaccinia virus infection (mCherry reporter signal). Potency, µM (highest dose often 36.5 µM), for the others: at the top dose activity change, negative = inhibition, actives largely listed as inhibitors. Vaccinia virus mCherry reporter infection, fluorescence; about a quarter of the inactives have no number. 310,000 compounds, 0.63% hits; active = well fitted inhibition curve with a large enough effect; inconclusive = small, poorly fitted or top-dose-only effect; inactive = no such curve, though single readings can be large or run the other way; tested in A549 cells; note: nearly all actives have a fitted effect of over 35% in size; inactives centre near -10
Vaccinia Venus: vaccinia inhibition (Venus reporter); Potency, µM (top dose mostly 36.5 µM), for the others: at the highest dose activity change, negative = inhibition, usual class: inhibitors; AID 720580; Vaccinia virus Venus reporter expression, fluorescence; 330,000 compounds, 0.46% hits; active means well fitted inhibition curve with a large enough effect; inconclusive means small, poorly fitted or top-dose-only effect; inactive means no such curve, though single readings can be large or run the other way; tested in A549 cells; note: nearly all actives have a fitted effect of over 30% in size; inactives centre near -10
* hit, by the source's call; i = inactive; ? = inconclusive; / = not tested or not shown; [ ] = dose if it differs, or a comment. % is set by controls: 0 for no effect and ±100 for the full control effect; potency is the fitted concentration of half-maximal effect.

| molecule | VACV mCherry inh | Vaccinia Venus |
| --- | --- | --- |
| COc1ccc(C2(O)CC3CCC(C2)N3c2cc(C)nc(-c3ccccc3)n2)cc1 (stereo not drawn) | -12.5% | -29.6% |
| Cn1ccnc1/C(=N\NC(=O)c1ccccc1)c1cccc([N+](=O)[O-])c1 | -9.1% | -5.5% |
| COCCCNC(=S)N/N=C/c1ccc(N(C)C)cc1 | -4.4% | -8.2% |
| CCOC(=O)c1sc2nc(CSc3ccccc3)nc(N3CCCN(C)CC3)c2c1C | ? | ? |
| CNC(=O)c1cc(S(=O)(=O)N2CC(C)OC(C)C2)ccc1N1CCCCC1 (stereo not drawn) | -4.4% | -4.0% |
| Cc1cc(C)c(COCc2cc(/C=N/O)c(C)cc2C)cc1/C=N/O | -10.4% | ? |
| Cc1cc(CNC(=O)c2cc(COc3ccc(F)c(F)c3)on2)nn1C | i | -10.1% |
| O=[N+]([O-])c1ccc(F)c(N=Cc2ccc(Br)s2)c1 | i | -13.9% |
| ON=C1c2ccccc2-c2cc(Br)ccc21 | -28.7% | -27.1% |
| CCN(CC)CC1(O)CCN(C(=O)c2ccc(Cl)c(Cl)c2)CC1 | -19.3% | -9.7% |
| O=C(COC(=O)CCSc1ccccc1)Nc1cc(F)ccc1F | i | -6.1% |
| CCCCCCN=C(C)c1c(O)n(CCCC)c(=O)[nH]c1=O | / | -6.6% |
| COC(=O)c1ccc(N2C(=O)CC(N3CCC(O)(c4ccc(Br)cc4)CC3)C2=O)cc1 (stereo not drawn) | -17.2% | -13.3% |
| CC(C)C(OC(=O)c1ccco1)C(=O)NC1CCCCC1 (stereo not drawn) | 0.5% | -3.1% |
| OC1CCCN(C(=S)NCc2ccccc2)C1 (stereo not drawn) | -6.8% | 0.4% |
| COc1ccc(CCC(=O)Nc2cccc(S(=O)(=O)N3CCCCCC3)c2)cc1 | ? | -13.5% |
| COC(=O)c1c(NC(=O)c2ccccc2)sc(C(N)=O)c1C | 1.8% | 4.1% |
| COc1ccc2nc(/N=C(\N)NC(=O)C(C)(C)C)nc(C)c2c1 | -3.7% | -10.6% |
| Cc1cc2nc(-c3ccc(Cl)cc3)cc(C(F)(F)F)n2n1 | -14.5% | -13.1% |
| O=C(NC(=S)Nc1ccc2oc(=O)ccc2c1)c1ccco1 | i | -3.1% |
| CN(C)c1ccc(/C=C/c2sc3ccccc3[n+]2CCCCBr)cc1 | -23.9% | 61.1%[activator] |
| O=C(CSC(=S)N1CCOCC1)c1ccccc1 | i | -7.8% |
| CCN(c1ccccc1)c1nc(Cl)nc2c1cnn2C | -4.0% | 5.1% |
| O=C(O)c1cc2cccc(S(=O)(=O)N3CCCCC3)c2cc1O | -8.9% | -3.0% |
| COC(=O)c1ccc(NC(=O)CCn2cccn2)cc1 | -7.8% | -1.1% |
| O=C(NCC1CCCO1)c1ccccc1S(=O)(=O)c1ccc([N+](=O)[O-])cc1 (stereo not drawn) | -11.0% | -6.7% |
| Cc1ccsc1CN(C(=O)c1oc2ccc(Br)cc2c1C)C1CCS(=O)(=O)C1 (stereo not drawn) | -7.8% | -8.3% |
| COc1ccc(CCCc2nnc(SCC(=O)Nc3ccccc3F)o2)cc1 | -3.8% | 4.3% |
| CCc1cnc2c(c1SCC(=O)Nc1ccc(C)cc1C)c(=O)n(C)c(=O)n2C | -3.6% | -8.7% |
| Cc1nc(SCC(=O)Nc2ccccn2)n[nH]1 | i | -8.2% |
| CC(C)(C)S(=O)(=O)N1C[C@@H]2C(=CC[C@H]3C(=O)N(c4ccccc4)C(=O)[C@@H]23)[C@@H]1CCO | -6.1% | -9.3% |
| Cc1nnc(SCC(=O)Nc2nsc(-c3ccc(C(C)(C)C)cc3)n2)s1 | -11.5% | -8.9% |
| Cc1ccc(CNc2ccc3nnc(-c4ccccc4)n3n2)cc1 | -4.3% | -9.2% |
| CCc1ccc(NC(=O)CCCc2nc(-c3ccco3)no2)cc1 | -9.9% | -10.1% |
| Nc1cc(N)nc(SCC(=O)NCC(=O)Nc2ccc(F)c(F)c2F)n1 | -11.2% | -0.4% |
| O=C(O)C1CC=CCC1C(=O)Nc1cccnc1 (stereo not drawn) | i | -9.1% |
| CCOc1ccc(CNC(=O)C2Cc3ccccc3N2C(=O)CC)cc1OC (stereo not drawn) | -4.0% | 4.3% |
| COc1ccc(C)cc1NC(=O)CCNC(=O)c1ccco1 | 8.5% | -7.6% |
| CC(=O)NC(CCS(C)(=O)=O)C(=O)Nc1ccccc1 (stereo not drawn) | -0.1% | 13.7% |
| COc1ccccc1N1CCN(C(=O)c2ccc3noc(-c4ccccc4)c3c2)CC1 | -19.9% | -13.8% |
| O=C(NCc1ccncc1)C1CCN(S(=O)(=O)c2cccc(C(F)(F)F)c2)CC1 | 0.3% | -8.0% |
| S=c1[nH]nc(Cn2cnc3ccccc32)n1-c1ccccc1 | -0.7% | -5.9% |
| O=C(CSc1ncn[nH]1)NCCc1ccc(Cl)cc1Cl | -20.8% | -10.7% |
| O=C(CSc1ncccn1)NCc1ccc2c(c1)OCO2 | -5.0% | 16.3% |
| S=C(NCc1ccccc1)Nc1cccc(Cl)c1 | -6.6% | -13.5% |
| COc1cccc(-n2c(N)c(-c3nc4ccccc4[nH]3)sc2=S)c1 | -4.5% | -8.9% |
| COc1cccc2c(=O)n(CC(=O)Nc3ccc(F)cc3)ccc12 | i | -12.2% |
| COc1ccc(OC)c(CCNC(=O)CN2C(=O)CCSc3ccccc32)c1 | i | -5.5% |
| O=[N+]([O-])c1cccc(S(=O)(=O)c2ccc(NCCO)c([N+](=O)[O-])c2)c1 | -5.8% | -14.0% |
| Cc1cccc(CSCc2ccc(C(=O)NCCc3ccccc3)o2)c1 | 1.7% | -3.6% |
| O=C1CCC(C(=O)N2CCc3ccccc3C2)CN1CCCN1CCOCC1 (stereo not drawn) | -3.7% | -17.7% |
| COc1ccc(OCc2nnc(SC(C)C(=O)Nc3ccc(N4CCOCC4)cc3)n2C)cc1 (stereo not drawn) | -15.0% | -10.8% |
| Cc1cc(=O)oc2cc(NC(=O)c3ccccc3Cl)ccc12 | i | -5.1% |
| O=C(Nc1cc(Cl)cc(Cl)c1)c1ccc(F)c(S(=O)(=O)NC2CCCC2)c1 | -23.4% | -27.0% |
| COc1ccc(-c2nc3ccc(Cl)cn3c2Cc2ccccc2C(F)(F)F)cc1OC | 3.4% | -8.0% |
| O=C(CN(CC(=O)N1CCOCC1)S(=O)(=O)c1ccc(Br)s1)N1CCOCC1 | -4.2% | 8.1% |
| COc1cccc(OCC(=O)NNC(=O)c2cnccn2)c1 | i | -12.2% |
| CN(C(=O)COC(=O)c1nc(Cl)ccc1Cl)c1ccccc1 | i | -3.6% |
| COc1ccc(CNC(=O)Cn2nc(C(F)(F)F)cc2C)cc1 | -8.4% | 0.4% |
| CC(C)(C)OC(=O)N1CCC(c2c(C(=O)Nc3ccc4c(c3)OCCO4)cnn2-c2ccc(F)cc2F)CC1 | -11.2% | -8.6% |

Remaining list, next part:
| molecule | VACV mCherry inh | Vaccinia Venus |
| --- | --- | --- |
| COc1ccc(C)cc1NC(=O)c1c([N+](=O)[O-])cnn1C | i | -3.8% |
| O=C1C=C(NCc2ccc(Cl)c(Cl)c2)CC1 | -8.0% | -16.3% |
| COc1ccc(N2CCN(C(=O)CSc3c4c(nc5ccc(Cl)cc35)CCCC4)CC2)cc1 | -7.1% | -17.6% |
| O=C(Nc1nnc([C@@H]2C[C@H](O)[C@@H](CO)O2)s1)Nc1ccccc1C(F)(F)F | -4.5% | 2.0% |
| COC(=O)C1=C(c2cccc(OCc3ccccc3)c2)C[C@@H]2CC[C@H]1N2C(=O)NCc1ccc(C(C)(C)C)cc1 | ? | ? |
| CN(CCC#N)C(=O)COC(=O)c1cc(Cl)cc(Cl)c1N | -27.4% | -12.0% |
| CC(=O)C1=C(O)C(=O)N(c2ccc(Br)cn2)C1c1ccccc1F (stereo not drawn) | / | 2.6% |
| COc1cc2nc(/C=C/c3cc(OC)c(OC)c(OC)c3)sc2cc1SC | ? | ? |
| O=C(COC(=O)CCc1nc2ccccc2s1)Nc1ncc(Cl)cc1Cl | -10.6% | -5.5% |
| COc1cccc(OCCn2cc(C(C)=O)c3ccccc32)c1 | ? | -27.8% |
| CCCCCCCc1c(O)nc(SCCN(C)C)[nH]c1=O | i | 8.9% |
| Oc1ccccc1CNn1cnnc1 | -6.0%[1.46 µM] | -12.5% |

Further structures.
Value order: VACV mCherry inh, Vaccinia Venus
> O=C(COC(=O)c1ccc(Cl)cc1)NCC1CCCCC1
    -12.3%, 0.6%
> Cc1ccc(N(CC(=O)NN=C2CCN(C)CC2)S(=O)(=O)c2ccc(C)cc2)cc1
    ?, -7.7%
> Cc1ccc(Cn2c(C)c(CNC3CCCCC3)c(C(=O)O)c2C)cc1
    -6.7%, 3.7%
> CCOC(=O)c1n[nH]n(-c2cc(Cl)cc(Cl)c2)c1=O
    -18.3%, -7.1%
> Cc1cccc(C)c1NC(=O)C1(N2C(=O)CC2c2ccccc2)CCCCC1 (stereo not drawn)
    i, -2.7%
> COc1ccc(C(=O)OCC[N+]2(C)CCOCC2)cc1
    i, -11.1%
> CCN(CC)S(=O)(=O)c1ccc(-c2csc(C)n2)s1
    i, -14.9%
> Cc1ccc(NC(=O)CC2NCCN(Cc3ccccc3)C2=O)cc1 (stereo not drawn)
    -6.6%, -12.9%
> O=C(CC1NCCc2ccccc21)Nc1ccc(Oc2ccccc2)cc1 (stereo not drawn)
    -16.3%, -10.8%
> CC(C)NC(=O)N(C)C[C@H]1Oc2ccc(NC(=O)Cn3cnnn3)cc2C(=O)N([C@H](C)CO)C[C@@H]1C
    i, -4.6%

Of the compounds above, 5 have a tert-butyl group:
Value order: VACV mCherry inh, Vaccinia Venus
> COc1ccc2nc(/N=C(\N)NC(=O)C(C)(C)C)nc(C)c2c1
    -3.7%, -10.6%
> CC(C)(C)S(=O)(=O)N1C[C@@H]2C(=CC[C@H]3C(=O)N(c4ccccc4)C(=O)[C@@H]23)[C@@H]1CCO
    -6.1%, -9.3%
> Cc1nnc(SCC(=O)Nc2nsc(-c3ccc(C(C)(C)C)cc3)n2)s1
    -11.5%, -8.9%
> CC(C)(C)OC(=O)N1CCC(c2c(C(=O)Nc3ccc4c(c3)OCCO4)cnn2-c2ccc(F)cc2F)CC1
    -11.2%, -8.6%
> COC(=O)C1=C(c2cccc(OCc3ccccc3)c2)C[C@@H]2CC[C@H]1N2C(=O)NCc1ccc(C(C)(C)C)cc1
    ?, ?

Later entries
Value order: VACV mCherry inh, Vaccinia Venus
> CCOC(=O)c1ccc(N2CCOCC2)c(NC(=O)c2c(-c3ccccc3)noc2C)c1
    -8.5%, -28.7%
> CCCC(=O)NCCCCNC(=O)CCC
    -2.2%, -8.7%
> Cc1ccc(NC(=O)c2ncn[nH]2)cc1
    i, 3.1%
> CC(=O)Nc1ccc(SC[C@H](CC(C)C)N2CCN(CCc3ccccc3)CCC2=O)cc1
    ?, -25.6%
> O=C(O)c1ccc(Nc2nc(-c3ccccc3)cs2)cc1
    -22.9%, 9.5%
> COc1cccc(-c2cnc3c(NC(C)=O)cc(-c4ccccc4OC)cn23)c1
    -0.7%, -7.7%
> Cc1ccccc1C(=O)Nc1cc(NC(=O)c2ccccc2C)cc(C(=O)O)c1
    -4.2%, -2.5%
> CC(C)OC(=O)CC1=NC(=O)CS1
    -5.9%, -4.5%
> CC1CN(CCC(=O)NC(c2cccnc2)C(F)(F)F)Cc2cc(Cl)ccc2O1 (stereo not drawn)
    -9.8%, -10.3%
> C=CCSc1nc2ccccc2n1S(=O)(=O)c1ccc(Cl)cc1
    /, -5.0%
> COCCNC(=O)CN1C(=O)NC2(CCOc3ccccc32)C1=O (stereo not drawn)
    i, -12.2%
> CSc1ncccc1C(=O)OCC(=O)c1ccc(Cl)s1
    i, -8.0%
> CC(=O)c1cccc(NC(=O)CC(C)n2ccnc2)c1 (stereo not drawn)
    -9.8%, -10.3%
> COc1ccc(CNc2nc3c(-c4ccccc4)nnn3c3ccccc23)cc1
    -15.0%, -13.0%
> COCCn1cnnc1SCC(=O)Nc1sccc1C(N)=O
    2.9%, 4.7%
> O=C(Cc1ccc(F)cc1)N1CCC(c2nc3c(nnn3Cc3ccc(F)cc3)c(=O)[nH]2)CC1
    -9.7%, -0.2%
> Cc1cc(C(=O)CSc2nnnn2-c2ccc(Cl)cc2)c(C)n1CC1CCCO1 (stereo not drawn)
    -8.1%, -4.4%
> Cc1ccc(NC(=O)CSc2nnc(C3COc4ccccc4O3)o2)c(Cl)c1 (stereo not drawn)
    -22.9%, -6.2%
> CCOCc1nc(N)[nH]c(=O)c1Cc1ccc(OC(C)C)cc1
    /, -4.7%
> CN1CCN(C(c2cccc(Cl)c2)c2ccccc2Cl)CC1 (stereo not drawn)
    -14.4%, -22.6%
> CC(C)CN(CC(C)C)c1ccc(/C=C/c2nc3ccccc3s2)cc1
    -24.6%, 10.3%
> COc1ccc(N2CCN(C(=O)c3ccc(CS(=O)c4cccc(C)c4)o3)CC2)cc1 (stereo not drawn)
    -9.5%[7.34 µM], 0.8%[7.34 µM]
> CC(C)=CCC/C(C)=C/CC/C(C)=C/CCC1(C)CCc2cc(O)ccc2O1 (stereo not drawn)
    -11.2%, -6.2%
> CCOc1cc(S(=O)(=O)NCc2ccccc2)ccc1Br
    i, -12.1%
> Cc1ccc(Cn2nc(C)c(NC(=O)CCCn3nc([N+](=O)[O-])c(Cl)c3C)c2C)cc1
    -1.9%, -25.0%
> O=[N+]([O-])c1ccc(SCc2ccncc2)nc1
    -20.5%, -16.4%
> COc1ccccc1CN1CC(C(=O)N(C)CCc2ccccn2)CCC1=O (stereo not drawn)
    i, -17.1%
> CCc1ccc(NC(=O)CS(=O)CC(=O)NCC2OCCc3ccccc32)cc1 (stereo not drawn)
    -9.7%, -0.7%
> CN(C)Cc1ccccc1-c1cncnc1NCc1ccccc1
    -5.7%, 0.0%
